# Calb FLC: C. albicans growth inhibition with fluconazole, primary screen, CaCi-2 strain, Alamar Blue fluorescence | C. albicans CaCi-2 (fluconazole-resistant clinical isolate) + fluconazole, 48 h | growth inhibition, % (concentration not given with the values) | 300,000 tested, 0.57% active | AID 1979, 2009;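 active means most replicates above 75%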;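 further: all wells also contain fluconazole at 8 µg/ml as a sub-toxic cotreatment; 0% = median of DMSO wells and 100% = median of geldanamycin control wells; wells of about 8 µL received 7.5 nL stock; the first replicate is given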
# Beta cell apopt: inhibitors of cytokine-induced beta cell apoptosis, primary screen, luminescence | INS-1E cytokine-induced death, ATP luminescence, 48 h; percent of positive-control rescue, neutral wells zero | protection from apoptosis, % (test concentration not listed) | 300,000 tested, 0.8% active;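 active means all replicates at 75% or more, or half of them and the mean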;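 further: 0% = cytokine-treated negative control wells and 100% = positive control rescue; higher means more ATP so stronger rescue from cytokine killing; wells of about 40 µL received 100 nL stock; the first replicate is given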
# rRNA inh HTS: reduced GFP signal of wild-type E. coli, primary screen, bacterial rRNA inhibitor project, GFP/RFP fluorescence, OD600, single point; E. coli WT GFP vs humanized-ribosome RFP mutants, 24 h; active compounds read low; DMSO median 0, no signal -100; GFP signal change (wild-type ribosome), % (no concentration beside the values); 350,000 tested, 1.6% active; AID 720706, 2013;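 active means significant combined selectivity score with lowered wild-type GFP, culture density cut under 30%, mutant RFP and density less affected; inactive means any of these conditions unmet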; further: one replicate is shown; some compounds called inactive have numbers as strong as hits
# B2AR ag: beta2AR agonists driving receptor internalization, primary screen, cell-based, FAP fluorogen, flow cytometry; AID 504454, 2011; response, % (test concentration not listed); Beta-2 adrenergic receptor (Homo sapiens), P07550; Am2.2-beta2AR cells; reference of the scale not given here; 340,000 tested, 0.43% active;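 active means response above a set limit, near 3 SD of response in nonfluorescent compounds, cut at about 42% in these data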;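 further: stock transfer was 100 nL into about 11 µL; a reference agonist was the positive control; negative values mostly stem from fluorescent compounds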
# LANA-H2A inh: blockers of LANA interaction with H2A/H2B – biochemical, FP readout, HTS, primary screen | cell-free LANA-H2A/H2B peptide, fluorescence polarization | Protein LANA1 (Human herpesvirus 8 type P (isolate GK18)), Q9QR71 | inhibition, % (test concentration not listed) | 320,000 tested, 0.6% active; in the data active means inhibition mostly above about 10%, no sharp cut-off; inactive means mostly below about 6.7%;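 further: stock transfer was 7.5 nL into about 10 µL; 0% = median of vehicle wells and 100% = median of positive control wells; one replicate is shown; the record names a cut of 25% in any replicate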
# Target sequence (Q9QR71 whole entry, looked up): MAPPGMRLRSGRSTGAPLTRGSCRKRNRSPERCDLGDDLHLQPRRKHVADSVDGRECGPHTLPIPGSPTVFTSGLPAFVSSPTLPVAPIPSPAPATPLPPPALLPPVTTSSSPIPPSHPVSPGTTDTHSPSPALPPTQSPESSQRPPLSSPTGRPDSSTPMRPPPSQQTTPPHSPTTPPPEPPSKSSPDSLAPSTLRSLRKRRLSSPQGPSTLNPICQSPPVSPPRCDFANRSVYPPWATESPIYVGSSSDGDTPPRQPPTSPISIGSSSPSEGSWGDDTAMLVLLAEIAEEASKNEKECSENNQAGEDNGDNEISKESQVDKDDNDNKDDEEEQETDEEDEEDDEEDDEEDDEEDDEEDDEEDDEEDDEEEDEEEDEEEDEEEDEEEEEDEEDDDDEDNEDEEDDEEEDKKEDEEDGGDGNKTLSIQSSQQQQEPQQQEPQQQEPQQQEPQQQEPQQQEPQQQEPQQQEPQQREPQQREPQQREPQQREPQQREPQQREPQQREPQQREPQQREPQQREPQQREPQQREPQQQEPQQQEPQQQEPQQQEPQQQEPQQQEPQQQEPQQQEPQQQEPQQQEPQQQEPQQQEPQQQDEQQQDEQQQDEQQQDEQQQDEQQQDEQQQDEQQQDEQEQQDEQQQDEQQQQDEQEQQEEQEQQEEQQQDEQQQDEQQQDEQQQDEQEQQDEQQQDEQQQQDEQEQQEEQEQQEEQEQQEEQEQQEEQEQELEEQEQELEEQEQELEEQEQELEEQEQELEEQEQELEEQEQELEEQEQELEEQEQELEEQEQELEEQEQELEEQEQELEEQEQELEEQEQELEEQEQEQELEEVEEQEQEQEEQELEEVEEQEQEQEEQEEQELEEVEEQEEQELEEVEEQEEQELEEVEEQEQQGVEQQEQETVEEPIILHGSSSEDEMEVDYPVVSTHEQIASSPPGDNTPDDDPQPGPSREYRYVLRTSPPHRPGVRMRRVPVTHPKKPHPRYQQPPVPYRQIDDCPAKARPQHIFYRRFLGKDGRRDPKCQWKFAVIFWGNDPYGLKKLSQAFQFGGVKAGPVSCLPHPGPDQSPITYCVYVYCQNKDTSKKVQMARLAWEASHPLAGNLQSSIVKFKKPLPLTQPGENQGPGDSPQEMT
# ALR inh: inhibitors of human ALR sulfhydryl oxidase, primary screen, biochemical, H2O2 detection, HRP-luminol luminescence, single point. purified ALR, DTT oxidation. inhibition, % (no concentration beside the values). 290,000 tested, 3.8% active. AID 485317, 2010;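 active means mean and each replicate at 75% or more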;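 further: stock transfer was 7.5 nL into about 7.5 µL; 0% = neutral wells and 100% = wells with inactivated enzyme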
# T cruzi inh: inhibitors of intracellular T. cruzi growth, primary screen, luminescence, NIH3T3 host cells; 300,000 tested, 1.4% active; inhibition, % (test concentration not listed); AID 1885, 2009; T. cruzi beta-gal in NIH3T3, 90 h;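 active means mean inhibition across valid replicates above about 55%, limit read from the data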;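 further: signal also drops with host cell toxicity which is not excluded here; 0% = plate median of DMSO wells and 100% = zero luminescence signal; higher percent means less beta-gal luminescence so fewer parasites; stock transfer was 50 nL into about 50 µL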
# A1 inh: caspase 3/7 activation in MEF A1-2A-BIM cells, primary screen, A1 inhibitor project, cell-based, luminescence, HTS; 330,000 tested, 0.066% active; caspase activation, % (test concentration not listed); Caspase-Glo 3/7 luminescence, 3 h; percent of clofoctol response, vehicle zero;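 active means over half of replicate activation scores above 10%, or exactly half above 10 with the replicate mean above 10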;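 further: wells of about 30 µL received 50 nL stock; many hits fall short of the cut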
# rRNA inh HTS OD600: also measured in rRNA inh HTS; calls as there; OD600 change, %; measured here: OD600 growth;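 optical density of the mix in the first replicate; 0 = DMSO median and -100 = no signal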
# rRNA inh HTS RFP: second read-out of rRNA inh HTS, no call of its own (marks repeat the call); RFP signal change, %; measured here: RFP humanized mutant strains;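 first replicate; 0 = DMSO median and -100 = no signal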
# * marks the source's active call; other numbers are inactive results; / = no result given. The list is partial, so the mix of outcomes need not match the whole.
SMILES	Calb FLC	Beta cell apopt	rRNA inh HTS	rRNA inh HTS OD600	rRNA inh HTS RFP	B2AR ag	LANA-H2A inh	ALR inh	T cruzi inh	A1 inh
CCOC(=O)C(=O)Nc1sc(C(=O)N(CC)CC)c(C)c1C#N	-3	-6	-11	5	-4.2	1	5.4	/	0	-0.4
O=C(O)c1cc(NC(=O)c2ccc([N+](=O)[O-])cc2)cc(NC(=O)c2ccc([N+](=O)[O-])cc2)c1	4	-5	4	9	-1.5	-7	4.0	-32	0	0.5
COC(=O)CSC1=C(C#N)C(c2ccccc2)CC(=O)N1 (centres undefined)	3	-5	9	1	-0.3	-6	0.1	2	-15	0.0
CCC1(c2ccccc2)NC(=O)N(CC(=O)Nc2ccc(S(N)(=O)=O)cc2)C1=O (centres undefined)	9	5	3	6	-3.4	7	2.4	-11	-7	1.3
CC(C)C(=O)Nc1ccc2oc(-c3cc(F)c(F)cc3Cl)nc2c1	1	3	/	/	/	-11	-2.8	0	-10	-0.4
CCOC(=O)C1CCN(C(=O)CCNS(=O)(=O)c2cc(Br)cnc2N)CC1	-2	-1	1	1	-2.6	3	5.7	-4	-2	-0.5
COc1ccc(/C=N/NC(=O)CCn2nc(C)cc2C)cc1O	-2	-1	3	3	2.5	-9	2.7	77*	-6	0.5
NC(=O)CC(NC(=O)c1cccc(Br)c1)c1ccc(NC2CCC2)c([N+](=O)[O-])c1 (centres undefined)	-5	-3	5	8	13	-8	-0.8	1	-13	0.3
CC[n+]1c(C)sc2c(C)cc(C)cc21	-5	-20	12	12	-4.6	5	-1.3	16	21	-0.4
O=C(CCC1N=C2c3ccccc3N=C(SCC(=O)NCC3CCCO3)N2C1=O)NCc1ccc(F)cc1 (centres undefined)	2	-6	12	18	-3.8	-8	1.4	-4	-14	3.2
Cc1noc(C)c1C(=O)Nc1nc(C23CC4CC(CC(C4)C2)C3)cs1	4	28	/	/	/	-1	-6.4	/	15	-1.0
Cc1cc2oc(=O)cc(CN3CCCCC3C)c2cc1C (centres undefined)	-6	4	-1	6	1.5	2	-0.8	-1	-5	0.7
Cn1nnnc1SCC(=O)Nc1ccc(Cl)cn1	-5	-4	5	11	-1.6	-2	-3.4	2	-5	0.1
C/C(=N\NC(=O)C1CC1)c1cccnc1	-4	-1	/	/	/	-1	3.7	-1	-6	-0.3
COc1ccc(CCc2nc(-c3cccs3)no2)cc1	-7	-5	-18	-13	-3.7	3	-0.6	-1	-1	-0.5
COCC(C)N1CCC(n2nccc2NC(=O)CCCc2ccccc2)CC1 (centres undefined)	-8	6	7	10	0.5	-2	0.3	7	10	-0.6
S=C1c2ccccc2CN1c1ccccc1	10	/	/	/	/	-9	-0.3	-6	-22	-0.3
COc1ccc(S(=O)(=O)N2CCCCCC2)cc1NC(=O)CCCOc1ccccc1	/	0	/	/	/	-1	3.7	-8	/	-1.6
O=C(Nc1ccc([N+](=O)[O-])cc1)c1cccc(S(=O)(=O)Nc2ccccn2)c1	0	-1	0	11	-1.5	12	-0.7	-1	4	1.0
O=C(COc1cccc2ccccc12)NNC(=O)c1cnccn1	51	-4	-29	-32	-11	-7	1.4	-9	-12	-0.1
O=C1C(=O)N(CNc2ccccn2)c2ccccc21	-51	-8	/	/	/	17	-0.2	/	25	0.2
CC(=O)Nc1cccc2c1C(=O)N(c1ccccc1C)C2=O	3	-5	24	20	6.4	-1	-4.9	2	-9	-0.9
CC(C(=O)c1ccc(-c2ccccc2)cc1)[n+]1cccc(Br)c1 (centres undefined)	-9	2	-22	-6	-18	4	0.6	1	10	-0.6
Cc1ccc(-n2nnnc2SCC(=O)c2c(N)n(CC(C)C)c(=O)n(C)c2=O)cc1	-6	-9	/	/	/	4	-3.1	-4	-9	0.7
C=CCc1ccc(OCCOc2cccc(/C=N/n3cnnc3)c2)c(OC)c1	6	-1	/	/	/	7	-12	0	-17	0.7

# Next section:
SMILES	Calb FLC	Beta cell apopt	rRNA inh HTS	rRNA inh HTS OD600	rRNA inh HTS RFP	B2AR ag	LANA-H2A inh	ALR inh	T cruzi inh	A1 inh
CSc1nc2c(c(=O)[nH]c(=O)n2C)n1Cc1ccccc1	7	-2	-5	-4	-1.3	-2	-2.2	-4	17	0.6
Cc1ccc(NC(=O)c2sc3nc(N)c(C#N)cc3c2N)cc1	89*	4	1	2	2.0	11	15*	-15	-23	0.2
CCOC(=O)c1c(C)n(CCO)c2ccc(O)cc12	3	-6	/	/	/	7	-3.3	-101	-2	0.1
Cc1ccc2[nH]cc(CCNC(=O)c3cccnc3)c2c1	-8	4	0	1	-0.7	-10	15	96*	-14	-0.1
CC1(C(=O)NC2CCCCCC2)CCC(=O)N1Cc1ccc2c(c1)OCO2 (centres undefined)	-10	1	/	/	/	9	7.4	1	-8	-0.2
CCn1c(SCC(=O)NCC2CCCO2)nc2c(c1=O)SC(C)C2 (centres undefined)	-4	-1	11	13	0.1	13	3.6	-5	-13	0.4
O=C(NCc1ccncc1)c1ccc(S(=O)(=O)Nc2ccccc2)cc1	2	-2	-2	-4	-1.2	-2	3.6	-4	-2	-0.2
Cc1c(C)c2c(OCC(=O)N3CCC(C(=O)O)CC3)cc3c(c2oc1=O)CCC(C)(C)O3	2	0	/	/	/	-14	-2.8	-2	-5	0.4
Cc1cccc(N2C(=O)CN=C2Nc2nc(C)cc(C)n2)c1	0	-1	/	/	/	-15	-1.5	-3	-13	-0.1
NS(=O)(=O)c1ccc(CNC(=O)/C=C/c2ccccc2[N+](=O)[O-])cc1	3	-1	5	3	2.4	-6	2.8	-2	-5	0.0
COC(=O)C1=C(C)N(Cc2ccccc2)C(=NCCc2c[nH]c3ccccc23)N[C@H]1c1ccccc1	/	24	/	/	/	20	0.5	0	/	-1.3
CN(Cc1cccnc1)Cc1cn(C)nc1-c1ccc(Oc2ccccc2)cc1	-6	5	-24	-21	-9.3	-2	-4.6	/	29	-0.5
CCC(C(=O)OCC(=O)N(CCOC)c1c(N)n(Cc2ccccc2)c(=O)[nH]c1=O)c1ccccc1 (centres undefined)	1	/	2	-6	5.8	-11	6.0	-3	-1	0.0
COc1c(C)cccc1C(=O)Nc1ccc(N2CCOCC2)c(Cl)c1	-18	-8	/	/	/	4	6.1	0	7	0.8
Cc1cccc(C(C#N)c2nc3ccccc3nc2C(F)(F)F)c1 (centres undefined)	-10	5	/	/	/	-2	6.4	/	-6	-0.1
CN(CC(=O)Nc1ccc(F)cc1)C(=O)c1cc(-c2ccco2)nc2ccccc12	0	-2	4	6	2.5	10	0.1	9	-3	0.0
Cn1nc(C(F)(F)F)c2cc(C(=O)NC3CC3)sc21	-2	0	/	/	/	-15	-1.6	29	-5	0.1
O=C(CCCN1C(=O)CCC1=O)Nc1ccc2c(c1)OCO2	-3	-8	/	/	/	1	2.0	-9	-1	0.1
COc1cccc(CC2(CO)CCN(Cc3cccn3-c3cccnc3)CC2)c1	-9	0	20	10	2.1	-1	1.5	-8	19	-0.5
COc1ccc2c(C)cc(=O)[nH]c2c1	-10	-1	/	/	/	1	-1.1	-6	2	0.6
CCc1nc(C)cn1S(=O)(=O)c1cc([N+](=O)[O-])ccc1Cl	23	1	18	11	2.7	8	4.5	-11	4	0.4
CC(=O)N1c2ccccc2[C@H](C)[C@H]1C	/	3	5	11	-0.8	-2	4.0	5	/	1.2
Cc1ccccc1NC(=S)N(CCCN1CCCCC1)Cc1ccco1	0	-4	/	/	/	-2	4.9	-20	-9	0.4

# Eleven entries from above, with two lines to a compound.
# The line under a structure holds: Calb FLC | Beta cell apopt | rRNA inh HTS | rRNA inh HTS OD600 | rRNA inh HTS RFP | B2AR ag | LANA-H2A inh | ALR inh | T cruzi inh | A1 inh
- CSc1nc2c(c(=O)[nH]c(=O)n2C)n1Cc1ccccc1
    7 | -2 | -5 | -4 | -1.3 | -2 | -2.2 | -4 | 17 | 0.6
- Cc1ccc(NC(=O)c2sc3nc(N)c(C#N)cc3c2N)cc1
    89* | 4 | 1 | 2 | 2.0 | 11 | 15* | -15 | -23 | 0.2
- CCOC(=O)c1c(C)n(CCO)c2ccc(O)cc12
    3 | -6 | / | / | / | 7 | -3.3 | -101 | -2 | 0.1
- Cc1ccc2[nH]cc(CCNC(=O)c3cccnc3)c2c1
    -8 | 4 | 0 | 1 | -0.7 | -10 | 15 | 96* | -14 | -0.1
- CC1(C(=O)NC2CCCCCC2)CCC(=O)N1Cc1ccc2c(c1)OCO2 (centres undefined)
    -10 | 1 | / | / | / | 9 | 7.4 | 1 | -8 | -0.2
- CCn1c(SCC(=O)NCC2CCCO2)nc2c(c1=O)SC(C)C2 (centres undefined)
    -4 | -1 | 11 | 13 | 0.1 | 13 | 3.6 | -5 | -13 | 0.4
- O=C(NCc1ccncc1)c1ccc(S(=O)(=O)Nc2ccccc2)cc1
    2 | -2 | -2 | -4 | -1.2 | -2 | 3.6 | -4 | -2 | -0.2
- Cc1c(C)c2c(OCC(=O)N3CCC(C(=O)O)CC3)cc3c(c2oc1=O)CCC(C)(C)O3
    2 | 0 | / | / | / | -14 | -2.8 | -2 | -5 | 0.4
- Cc1cccc(N2C(=O)CN=C2Nc2nc(C)cc(C)n2)c1
    0 | -1 | / | / | / | -15 | -1.5 | -3 | -13 | -0.1
- NS(=O)(=O)c1ccc(CNC(=O)/C=C/c2ccccc2[N+](=O)[O-])cc1
    3 | -1 | 5 | 3 | 2.4 | -6 | 2.8 | -2 | -5 | 0.0
- COC(=O)C1=C(C)N(Cc2ccccc2)C(=NCCc2c[nH]c3ccccc23)N[C@H]1c1ccccc1
    / | 24 | / | / | / | 20 | 0.5 | 0 | / | -1.3
